Source: PubChem (several laboratories)
YopH PTP inh = YopH (Yersinia) phosphatase inhibition. fluorescence Ex485/Em525. inhibition, %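 (about 10 µM by stock and volumes)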. 140,000 tested, 0.16% active;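 active means inhibition of 50% or more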;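 further: controls were vehicle for no effect and minimum signal wells for full effect; inactives centre near -20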
Mtb betalactam = beta-lactam sensitization of Mtb H37Rv; M. tuberculosis H37Rv growth with meropenem, percent inhibition; hits of this screen are not shown here; 330,000 tested, 0.27% active; inhibition, % at 25 µM;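 active means about 74% or more and at least 40 points above the plate without the antibiotic, then above 30% in a dose series; inconclusive means first-round hits that could not be retested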;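 further: growth measured after seven days incubation then overnight dye step; 0% = bacteria only wells and 100% = bacteria with antibiotic; twin plates without the antibiotic show which effects depend on it; some results filed as inactive read as strong as hits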
Mtb H37Rv = M. tuberculosis H37Rv growth inhibitors, H37Rv strain (AID 1626). M. tuberculosis H37Rv growth inhibition; higher % means a stronger effect. inhibition, % at 10 µM; hits with a dose series show IC50 in µM. 220,000 tested, 0.95% active;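 active means confirmed in a dose series; inconclusive means inhibition above 80% but not taken into the dose series; inactive means below 80% or under 30% at every dose of the series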;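 further: bacteria incubated seven days before Alamar blue readout; 0% = bacteria only wells and 100% = bacteria with antibiotic wells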
RecA intein inh = blocks M. tuberculosis RecA intein splicing. cell-free RecA intein splicing, fluorescence. inhibition, %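 (about 9 µM by stock and volumes)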. 290,000 tested, 0.75% active. AID 2221; in the data active means inhibition above about 30%; inconclusive means no clear call, values can overlap the other calls;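 further: 0% = vehicle wells and 100% = reference inhibitor control wells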
Target sequence (P9WHJ3 whole entry, looked up): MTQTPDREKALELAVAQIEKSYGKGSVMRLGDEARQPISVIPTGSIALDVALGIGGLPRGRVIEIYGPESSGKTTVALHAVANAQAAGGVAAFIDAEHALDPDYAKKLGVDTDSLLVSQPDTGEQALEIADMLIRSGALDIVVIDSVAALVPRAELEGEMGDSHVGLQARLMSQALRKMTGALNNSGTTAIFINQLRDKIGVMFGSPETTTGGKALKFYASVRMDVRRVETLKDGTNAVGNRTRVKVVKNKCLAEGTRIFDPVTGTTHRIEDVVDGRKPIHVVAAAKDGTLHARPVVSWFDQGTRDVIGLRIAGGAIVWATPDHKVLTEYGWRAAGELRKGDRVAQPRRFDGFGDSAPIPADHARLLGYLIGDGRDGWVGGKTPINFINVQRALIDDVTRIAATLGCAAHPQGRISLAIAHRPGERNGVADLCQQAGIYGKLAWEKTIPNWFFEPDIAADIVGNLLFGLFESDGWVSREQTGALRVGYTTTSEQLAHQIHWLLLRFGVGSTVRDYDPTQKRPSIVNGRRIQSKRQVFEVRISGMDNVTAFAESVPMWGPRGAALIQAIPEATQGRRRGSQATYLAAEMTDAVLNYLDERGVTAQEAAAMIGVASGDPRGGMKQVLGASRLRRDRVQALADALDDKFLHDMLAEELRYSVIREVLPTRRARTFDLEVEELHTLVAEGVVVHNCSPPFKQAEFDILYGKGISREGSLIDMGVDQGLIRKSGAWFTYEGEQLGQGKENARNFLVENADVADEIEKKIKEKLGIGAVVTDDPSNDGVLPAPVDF
Arbovirus inh = blocks arbovirus infection | arbovirus infection cell-based antiviral screen | inhibition, % at 10 µM | 200,000 tested, 0.37% active | AID 1251;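 active means inhibition from about 30%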;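 further: bluetongue infection of BSR cells; cell survival read as ATP light after 72 h; 0% = infected wells without compound and 100% = uninfected wells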
Arbovirus inh repeat = further read-out of Arbovirus inh, marked with its call; inhibition, %; measured here: 10K subset replicate screen; many hits read low in the repeat;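 first of two repeat runs on a subset; 0% = infected and 100% = uninfected wells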
Starred values were filed as active, the others as inactive; ? = inconclusive; . = no result given.

SMILES | YopH PTP inh | Mtb betalactam | Mtb H37Rv | RecA intein inh | Arbovirus inh | others
Nc1nonc1C(=O)N/N=C/c1cccc([N+](=O)[O-])c1 | -29 | 1 | -3% | -1.6 | 6
COC(=O)C(C)Oc1ccc(=O)[nH]n1 (stereo not given) | -39 | -3 | -8% | -0.7 | -1
CCn1nc(CC(C)C)cc1C(=O)N1CCCC(Nc2ccc(OC)cc2)C1 (stereo not given) | . | 0 | . | 1.8 | .
COc1ccc(S(=O)(=O)N(C)c2ccc(C(=O)Nc3ccccc3C(=O)N3CCOCC3)cc2)cc1OC | . | 6 | . | -0.3 | .
COc1ccc(-c2[nH]ncc2CN2CCC(OCc3cccnc3)CC2)c(F)c1 | . | -4 | -2% | -2.0 | -3
Fc1ccc(Oc2nccc(-c3ccc(Cl)cc3)n2)cc1 | -38 | -7 | 12% | -5.5 | 1
Cc1cc(C)n(-c2ccc(C(=O)OCc3ccccc3)cc2)n1 | -25 | 97 | 9% | . | -7
COc1ccccc1N1CCN(C(=O)CCNS(=O)(=O)c2ccc(Br)s2)CC1 | -55 | 44 | 5% | -0.9 | 7
CC(=O)NC(Cc1cnc[nH]1)C(=O)O (stereo not given) | -35 | -8 | -11% | -4.1 | 6
COc1ccc(N(CC(=O)O)S(=O)(=O)c2c(C)n[nH]c2C)cc1 | -16 | 1 | -9% | 1.2 | 2
Cc1nc(NS(=O)(=O)c2ccccc2)sc1NC(=O)Nc1ccccc1 | . | 0 | -7% | -2.4 | -3
CCN(CC)c1ccc(/C=C/C(=O)c2ccc(Br)cc2)cc1 | -20 | 0 | 1% | 0.4 | 16
O=C(CCN1C(=O)C2C3C=CC(C3)C2C1=O)N1CCN(c2ccc(F)cc2)CC1 (stereo not given) | -26 | 2 | 12% | . | 3
O=C(CSc1ccc(Br)cc1)NCC1CCCO1 (stereo not given) | . | -6 | 8% | 0.4 | 11
COc1cc(CNc2ncn[nH]2)ccc1OCc1ccccc1C | . | -8 | -5% | -0.7 | -3
CCN(CC)C(=O)C(C)N(C#N)c1nc(C)cc(C)n1 (stereo not given) | -27 | -2 | ? | 0.2 | 0
CC(=O)N1c2ccc(S(=O)(=O)N3CCCC(C(=O)N4CCC(C)CC4)C3)cc2CC1C (stereo not given) | . | -4 | . | -1.1 | .
COc1ccc(S(=O)(=O)N(C)CC(=O)NCc2ccco2)cc1OC | . | 2 | . | 1.2 | .
COc1ccc(C2CC(c3ccccc3)n3nnnc3N2)cc1 (stereo not given) | 6 | -3 | -6% | -1.3 | 1
CCCOc1ccc(C2(C(=O)O)CCCC2)cc1 | -26 | -2 | -6% | -0.9 | 2

Continued, overlapping the part above by 7 compounds.
SMILES | YopH PTP inh | Mtb betalactam | Mtb H37Rv | RecA intein inh | Arbovirus inh | others
O=C(CSc1ccc(Br)cc1)NCC1CCCO1 (stereo not given) | . | -6 | 8% | 0.4 | 11
COc1cc(CNc2ncn[nH]2)ccc1OCc1ccccc1C | . | -8 | -5% | -0.7 | -3
CCN(CC)C(=O)C(C)N(C#N)c1nc(C)cc(C)n1 (stereo not given) | -27 | -2 | ? | 0.2 | 0
CC(=O)N1c2ccc(S(=O)(=O)N3CCCC(C(=O)N4CCC(C)CC4)C3)cc2CC1C (stereo not given) | . | -4 | . | -1.1 | .
COc1ccc(S(=O)(=O)N(C)CC(=O)NCc2ccco2)cc1OC | . | 2 | . | 1.2 | .
COc1ccc(C2CC(c3ccccc3)n3nnnc3N2)cc1 (stereo not given) | 6 | -3 | -6% | -1.3 | 1
CCCOc1ccc(C2(C(=O)O)CCCC2)cc1 | -26 | -2 | -6% | -0.9 | 2
CCOC(=O)c1cc2cc(OCc3ccccc3)ccc2nc1C | . | 8 | . | -1.0 | .
COCCN(C(=O)Cn1c(C(F)(F)F)nc2ccccc21)c1c(N)n(Cc2ccccc2)c(=O)[nH]c1=O | . | -21 | . | 3.1 | .
OC(COCc1ccccc1F)CN1CCCCC1 (stereo not given) | . | -2 | . | -0.4 | .
O=C(CSc1cccc2cccnc12)N/N=C/c1cccc(O)c1 | . | -8 | -9% | -1.9 | 2
N#CCC(=O)Nc1ccc(C(=O)OC(C(=O)Nc2cc(C(F)(F)F)ccc2Cl)c2ccccc2)cc1 (stereo not given) | . | 1 | . | -1.0 | .
Cc1ccc(C)c(Cn2cnc3c(oc4ccccc43)c2=O)c1 | . | -5 | -1% | -0.7 | 1
C/C(=C\c1ccco1)C1C(C#N)=C(N)OC2=C1C(=O)CC(C)(C)C2 (stereo not given) | -11 | 1 | -2% | -0.5 | 8
CCS(=O)(=O)NCCc1csc(-c2cccnc2)n1 | -14 | -3 | 4% | -7.9 | -1 | Arbovirus inh repeat=1
CN1C(=O)C2(C(C#N)=C(N)N(c3cc(Cl)cc(Cl)c3)C3=C2C(=O)CC(C)(C)C3)c2ccccc21 (stereo not given) | -23 | -15 | -4% | 0.9 | 11
O=C(CN1C(=O)c2ccccc2C1=O)N1CCN=C1c1ccccc1 | . | 0 | 15% | -3.7 | .
O=C(NC(=S)Nc1ccc(F)cc1)C1CCCCC1 | . | 0 | . | 0.1 | .
O=C(c1cc(COc2cccc(C(F)(F)F)c2)on1)N1C[C@@H]2CCC[C@H]1C2 | . | 69 | . | 2.3 | .
Cc1cc(=O)oc2cc(OCC(=O)OCC(=O)Nc3ccc(C(C)C)cc3)ccc12 | -30 | 3 | 1% | 0.4 | 1
CCOC(=O)C1CCN(C(=O)CN2C(=O)c3ccccc3S2(=O)=O)CC1 | . | -4 | . | 2.0 | .
O=C(c1cc2ccc([N+](=O)[O-])cc2oc1=O)N1CCOCC1 | . | 1 | 4% | 4.4 | 5
c1ccc2oc(-c3ccc(Nc4nc(N5CCCC5)nc(N5CCOCC5)n4)cc3)nc2c1 | . | -9 | 6% | 1.1 | 1
Cc1ccc(CSCC(=O)N(CCC(C)C)c2c(N)n(Cc3ccccc3)c(=O)[nH]c2=O)cc1 | . | 1 | . | -0.1 | .
CCOC(=O)CSc1nc2ccccc2c(=O)n1CC1CCCO1 (stereo not given) | -2 | -12 | 4% | -0.5 | 7
Cc1ccc(-c2cc(C(=O)N/N=C/c3c[nH]c4ccccc34)n[nH]2)o1 | -19 | 51 | 4% | 3.1 | 10
CC(C)CN1C(=O)NC(NC(=O)c2cccnc2)(C(F)(F)F)C1=O (stereo not given) | -49 | -9 | -1% | . | 9
CCOC(=O)C1CCN(Cc2ccc(O)c(OC)c2)CC1 | -43 | -16 | -4% | 2.4 | 15
Cc1ccc(C(C(=O)NCC2CCCO2)N(C(=O)c2snc(C(N)=O)c2N)c2ccccc2F)o1 (stereo not given) | . | -5 | . | 0.7 | .
C=CCn1c(SCc2c(C(=O)OC)sc(N)c2C(=O)OC)nnc1-c1ccc(Cl)cc1 | -18 | 59 | 19% | 9.3 | 5
O=C1Nc2ccccc2N(O)N1c1ccc(S(=O)(=O)N2CCOCC2)cc1 | 6 | -4 | -4% | -3.5 | 3
CCOC(=O)Cc1nnc(NCc2ccccc2)c2ccccc12 | . | 8 | . | -0.5 | .
Cc1cccc(-n2c(O)c(C=NCCN3CCNCC3)c(=O)[nH]c2=S)c1 | . | 1 | . | 0.2 | .
CCCOc1ccc(C(=O)NNC(=O)CCNC(=O)c2ccccc2Cl)cc1OC | . | -12 | . | 1.4 | .
CN1CCN(c2ccc(N)cc2Cl)CC1 | . | -1 | -1% | 9.9 | 5
OCCN(Cc1ccccc1)Cc1ccc(Cl)cc1Cl | 17 | 3 | 3% | 6.6 | -3
CCN(CC)S(=O)(=O)c1ccc(F)cc1 | -25 | -3 | -3% | 0.2 | 7
O=C(NNC(=O)c1cc(-c2cccnc2)nc2ccccc12)Nc1ccc(Cl)cc1 | . | 51 | -5% | 0.0 | -1
CCCCOc1c(Br)cc(/C=N/O)cc1OCC | -29 | 86 | . | 0.7 | -34
CCC(=O)c1ccc(OCC(=O)O)c(OC)c1 | . | -1 | 2% | -1.4 | 8
CC(Oc1ccc(Cl)cc1)c1ccnn1S(=O)(=O)c1ccccc1 (stereo not given) | -39 | 3 | 1% | . | -2
CSc1ccccc1C(=O)Nc1nc2ccccc2[nH]1 | . | 17 | 5% | 3.0 | 11
CCOC(=O)C1=C(CN2CCN(C(=O)c3ccco3)CC2)NC(=O)NC1c1ccc(OC(C)C)cc1 (stereo not given) | . | -3 | . | 0.7 | .
NS(=O)(=O)c1ccc(NC(=O)c2ccc(S(=O)(=O)N3CCOCC3)o2)cc1 | . | 4 | -6% | 0.4 | .
COc1ccc(N2C(=O)NC(NC(=O)C(C)(C)C)(C(F)(F)F)C2=O)cc1 (stereo not given) | . | -5 | . | -2.2 | .
O=[N+]([O-])c1ncccc1Oc1nc(-c2cccnc2)nc2ccccc12 | . | 100 | 7.1µM* | 3.3 | 9
CCC(C)[C@H](NC(=O)NCCC1=CCCCC1)C(=O)OC (stereo not given in full) | . | -6 | -7% | -0.3 | .
CNC(=O)c1sc(-c2ccccc2)nc1C | -12 | -8 | -4% | 2.4 | 9
COC(=O)c1sccc1NC(=O)C1CCCCC1C(=O)O (stereo not given) | . | -3 | 5% | -4.5 | 6
COC(=O)CNC(=O)C12CC3CC(C1)CC(c1ccc(C)cc1)(C3)C2 | . | 2 | -5% | -0.9 | -2
COc1ccc2oc(=O)c(C(=O)N3CCN(C(=O)c4ccccc4)CC3)cc2c1 | . | -6 | . | -8.1 | .
O=C(CN1C(=O)c2cccnc2Oc2ccc(Cl)cc21)N1CCCC1 | . | ? | . | -0.7 | .
O=C(Cn1cnnn1)Nc1cccc([N+](=O)[O-])c1 | . | 3 | 2% | -1.3 | 4
O=C(Cn1cnc([N+](=O)[O-])n1)NCCc1ccccc1 | . | -2 | 3% | . | -3
CCOC(=O)c1sc2nc(CC(=O)OC)nc(NCc3ccc(Cl)cc3)c2c1C | -23 | 0 | 0% | 0.8 | 2
COc1ccc(N2CCN(CCNC(=O)c3ccc4c(c3)[nH]c(=S)n3c5ccccc5nc43)CC2)cc1 | . | -6 | 1% | 2.1 | -3
CC(C)c1c(C(=O)N/N=C/c2ccc(-c3ccccc3)cc2)nnn1-c1nonc1N | . | 3 | . | 0.4 | .
CS(=O)(=O)c1ccc2nc(NC(=O)C3CC(=O)N(c4ccc(F)cc4)C3)sc2c1 (stereo not given) | . | -1 | . | -3.4 | .
OCc1ccnc2oc3ccccc3c12 | . | -3 | . | -2.1 | .
Cn1ccs/c1=N\S(=O)(=O)c1ccc(F)cc1 | -25 | 6 | -7% | -2.7 | 0
Cc1ccc(-c2csc3n[nH]c(=S)n23)cc1 | -20 | 73 | -10% | -3.2 | 2

An excerpt, so the mix of outcomes need not match the whole.
